Screens (PubChem BioAssay)
Vaccinia inh = blocks a specific stage of Vaccinia orthopoxvirus infection; Vaccinia-infected cells, mCherry/Venus stage reporter fluorescence; stronger effect = lower value; some inactives read as strong as hits; activity change (mCherry), % (test concentration not listed); 0.01% of 89,000 active;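 active = mCherry past -33% and 40 or more points under the early reporter, replicates agreeing; inconclusive = past -33% without that gap or agreement; tested in A549 cells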;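 also: scaled between vehicle wells and reference inhibitor wells; 23 nL library stock went into each well; one replicate is shown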
Vaccinia inh Venus = further read-out of Vaccinia inh, marked with its call; activity change (Venus), %; measured here: Venus reporter, other viral stage;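 negative = less Venus signal; first of two replicates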
Active calls of the source: *. Some of the compounds tested (hit frequency here may not be typical).

Screening CC(C)C(=O)Nc1ccc2c(c1)C(=O)N(C)[C@H]1CC[C@H](CC(=O)NCC3CC3)O[C@H]1CO2 returned Vaccinia inh 5 and Vaccinia inh Venus 8.
`C[C@@H]1CN([C@H](C)CO)C(=O)c2cc(NC(=O)CCCN(C)C)ccc2O[C@@H]1CN(C)Cc1ccc(C(F)(F)F)cc1` gave Vaccinia inh -5 and Vaccinia inh Venus 6.
`O=C(Nc1cc(Cl)cc(Cl)c1)N[C@@H]1CC[C@@H](CCNS(=O)(=O)c2cccc(F)c2)O[C@@H]1CO` gave Vaccinia inh -31 and Vaccinia inh Venus -24.
Screening COCCNC(=O)[C@H]1[C@H](CO)[C@H]2Cn3c(ccc(-c4ccccc4)c3=O)[C@@H]1N2C returned Vaccinia inh 4 and Vaccinia inh Venus 12.
Screening Cc1ccc(S(=O)(=O)N[C@@H]2CC[C@H](CCn3cc(C4(O)CCCC4)nn3)O[C@H]2CO)cc1 returned Vaccinia inh -5 and Vaccinia inh Venus -7.
`CCCC#Cc1cnc2c(c1)C(=O)N([C@H](C)CO)C[C@@H](C)[C@H](CN(C)C)O2` gave Vaccinia inh 0 and Vaccinia inh Venus -1.
Screening Cc1ccccc1CN(C)C[C@H]1OCc2cnnn2CCCC(=O)N([C@@H](C)CO)C[C@@H]1C returned Vaccinia inh 9 and Vaccinia inh Venus 12.
Screening O=C(C[C@@H]1CC[C@H](NC(=O)c2ccc(F)cc2)[C@@H](CO)O1)NCCc1ccncc1 returned Vaccinia inh 4 and Vaccinia inh Venus 1.
COc1ccc(CN(C)C[C@@H]2Oc3c(NC(=O)C4CCCCC4)cccc3C(=O)N([C@H](C)CO)C[C@H]2C)cc1 was read as Vaccinia inh inconclusive.
Screening COc1ccc(S(=O)(=O)Nc2cccc3c2O[C@H](CN(C)Cc2ccc(Oc4ccccc4)cc2)[C@H](C)CN([C@@H](C)CO)C3=O)cc1 returned Vaccinia inh -28 and Vaccinia inh Venus -16.
Screening C[C@@H](NC(=O)C[C@H]1C[C@@H]2c3cc(NC(=O)Nc4ccccc4F)ccc3O[C@@H]2[C@H](CO)O1)c1ccccc1 returned Vaccinia inh 4 and Vaccinia inh Venus 0.
CN1c2ccc(-c3cccc(F)c3)cc2[C@@H]2[C@@H](CCN2C(=O)Cc2cccnc2)[C@@H]1CO was read as Vaccinia inh inconclusive.
Screening CC(C)NC(=O)Nc1ccc2c(c1)C(=O)N([C@@H](C)CO)C[C@@H](C)[C@@H](CN(C)S(=O)(=O)c1ccccc1)O2 returned Vaccinia inh 17 and Vaccinia inh Venus 10.
For O=C(NCc1ccccc1)C1=C[C@H](C2CC2)C[C@H](OCCCCO)O1 the results were Vaccinia inh 12 and Vaccinia inh Venus 7.
Screening COc1ccc(S(=O)(=O)Nc2ccc3c(c2)CC(=O)N([C@H](C)CO)C[C@H](C)[C@H](CN(C)S(=O)(=O)c2ccc(OC)cc2)O3)cc1 returned Vaccinia inh -14 and Vaccinia inh Venus -9.
For C[C@@H]1CN([C@H](C)CO)C(=O)c2cc(NC(=O)Cc3ccccc3)ccc2O[C@H]1CN(C)C(=O)Nc1ccc(F)cc1 the results were Vaccinia inh 21 and Vaccinia inh Venus 7.
COc1cccc(-c2cnc3c(c2)C(=O)N([C@@H](C)CO)C[C@@H](C)[C@H](CN(C)C(=O)CN(C)C)O3)c1 was read as Vaccinia inh 9 and Vaccinia inh Venus -1.
COCC(=O)N(C)C[C@H]1Oc2cc(C3=CCCC3)ccc2S(=O)(=O)N([C@H](C)CO)C[C@H]1C was read as Vaccinia inh 9 and Vaccinia inh Venus 15.
For O=C(C[C@H]1C[C@H]2c3cc(NC(=O)c4cccnc4)ccc3O[C@H]2[C@@H](CO)O1)NCc1cccc(F)c1 the results were Vaccinia inh 18 and Vaccinia inh Venus 12.
Screening CC(C)NC(=O)N1CC2(C1)[C@H](c1ccccc1)[C@@H](CO)N2C(=O)C1CCOCC1 returned Vaccinia inh 13 and Vaccinia inh Venus 10.
`C[C@H](CO)N1C[C@H](C)[C@@H](CN(C)S(=O)(=O)c2ccc(Cl)cc2)Oc2c(NS(C)(=O)=O)cccc2C1=O` gave Vaccinia inh 19 and Vaccinia inh Venus 12.
COc1ccc(NC(=O)N[C@H]2CC[C@@H](CCn3cc(-c4ccccn4)nn3)O[C@H]2CO)cc1 was read as Vaccinia inh -12 and Vaccinia inh Venus -2.
CN1[C@@H]2c3ccc(-c4ccccc4)c(=O)n3C[C@@H]2[C@@H](CO)[C@@H]1C(=O)NCCc1ccccc1 was read as Vaccinia inh -9 and Vaccinia inh Venus -2.
`COc1ccc(S(=O)(=O)N[C@@H]2C=C[C@@H](CC(=O)NCc3ccccc3F)O[C@H]2CO)cc1` gave Vaccinia inh -15 and Vaccinia inh Venus -12.
`C[C@@H]1CN([C@H](C)CO)S(=O)(=O)c2ccc(C3=CCCC3)cc2O[C@H]1CN(C)C(=O)C1CCC1` gave Vaccinia inh -1 and Vaccinia inh Venus 2.
Screening COc1ccc(C#Cc2ccc([C@@H]3[C@H]4CN(C(=O)c5cccnc5)CC(=O)N4[C@H]3CO)cc2)cc1 returned Vaccinia inh inconclusive.
For C[C@H]1CN([C@@H](C)CO)S(=O)(=O)c2ccc(-c3ccccc3F)cc2O[C@@H]1CN(C)C the results were Vaccinia inh -29 and Vaccinia inh Venus -18.
Screening CO[C@@H]1CN(C)C(=O)c2cc(NS(C)(=O)=O)ccc2OC[C@@H](C)N(C)C[C@H]1C returned Vaccinia inh 15 and Vaccinia inh Venus 16.
For O=C(N[C@@H]1CC[C@@H](CC(=O)N2CCc3ccccc3C2)O[C@@H]1CO)C1CCOCC1 the results were Vaccinia inh 0 and Vaccinia inh Venus -3.
`CCC(=O)Nc1ccc2c(c1)C(=O)N(C)C[C@H](OC)[C@@H](C)CN(Cc1ccccc1C(=O)O)[C@@H](C)CO2` gave Vaccinia inh -2 and Vaccinia inh Venus 6.
For O=C(C[C@H]1CC[C@@H](NC(=O)Cc2cccnc2)[C@@H](CO)O1)NCc1ccc2c(c1)OCO2 the results were Vaccinia inh -4 and Vaccinia inh Venus -2.
O=C(NC[C@H]1CC[C@@H]2[C@@H](CN2Cc2cccc(Cl)c2)O1)C1CC1 was read as Vaccinia inh 13 and Vaccinia inh Venus 16.
C[C@@H]1CN([C@@H](C)CO)C(=O)c2cccc(NC(=O)Nc3ccccc3)c2O[C@@H]1CN(C)Cc1ccc(-c2ccccc2)cc1 was read as Vaccinia inh -12 and Vaccinia inh Venus -6.
Screening CC=Cc1ccc2n(c1=O)C[C@@H]1[C@@H](CO)[C@H](C(=O)NCC)[C@H]2N1C(=O)C1CC1 (mixture of isomers) returned Vaccinia inh 21 and Vaccinia inh Venus 11.
Screening O=C(Nc1ccccc1F)N1C[C@@H]2[C@H](c3ccccc31)[C@@H](CO)N2C(=O)c1ccc(F)cc1 returned Vaccinia inh -1 and Vaccinia inh Venus 4.
For C[C@H](CO)N1C[C@H](C)[C@H](CN(C)CC2CC2)OCCCC[C@H](C)Oc2ccc(NC(=O)NC3CCCCC3)cc2C1=O the results were Vaccinia inh -3 and Vaccinia inh Venus -12.
Screening CCCN1C[C@@H](C)[C@@H](OC)CN(C)C(=O)c2ccc(NS(=O)(=O)c3cn(C)cn3)cc2OC[C@H]1C returned Vaccinia inh -7 and Vaccinia inh Venus -3.
CCC(=O)N(C)C[C@@H]1Oc2ncc(-c3ccccc3C)cc2C(=O)N([C@H](C)CO)C[C@@H]1C was read as Vaccinia inh 23 and Vaccinia inh Venus 4.
Screening Cc1cc(C(=O)Nc2ccc3c(c2)C(=O)N(C)[C@@H]2CC[C@H](CC(=O)NC4CCCC4)O[C@H]2CO3)no1 returned Vaccinia inh 8 and Vaccinia inh Venus 6.
`C[C@@H]1CN([C@H](C)CO)C(=O)Cc2cc(NC(=O)Nc3ccc4c(c3)OCO4)ccc2O[C@@H]1CN(C)S(=O)(=O)c1ccccc1` gave Vaccinia inh -3 and Vaccinia inh Venus -4.
For C[C@@H]1CCCCO[C@H](CN(C)C(=O)c2ccccc2)[C@H](C)CN([C@@H](C)CO)C(=O)c2cc(NC(=O)C3CCCCC3)ccc2O1 the results were Vaccinia inh -12 and Vaccinia inh Venus -17.
Screening C[C@@H]1CN([C@H](C)CO)S(=O)(=O)c2ccc(-c3cccc(F)c3)cc2O[C@@H]1CN(C)S(C)(=O)=O returned Vaccinia inh 2 and Vaccinia inh Venus -10.
Screening O=C(C[C@H]1C[C@H]2c3cc(NS(=O)(=O)c4ccc(F)cc4)ccc3O[C@H]2[C@@H](CO)O1)NCc1cc(F)ccc1F returned Vaccinia inh -10 and Vaccinia inh Venus -8.
For COc1ccc(NC(=O)N(C)C[C@H]2Oc3ccc(NC(=O)NC(C)C)cc3CC(=O)N([C@H](C)CO)C[C@@H]2C)cc1 the results were Vaccinia inh 7 and Vaccinia inh Venus 9.
Screening C[C@H](CO)N1C[C@H](C)[C@@H](CN(C)Cc2ccc(C(=O)O)cc2)Oc2ccc(NS(=O)(=O)c3cccs3)cc2C1=O returned Vaccinia inh 6 and Vaccinia inh Venus 3.
OC[C@@H]1[C@H](c2ccc(C#CC3CC3)cc2)[C@H]2CN(CCC(F)(F)F)CCCCN12 was read as Vaccinia inh inconclusive.
`Cc1ccc(S(=O)(=O)N2C[C@H](O)COC[C@H]3O[C@@H](CC(=O)NCCCN(C)C)CC[C@@H]32)cc1` gave Vaccinia inh 11 and Vaccinia inh Venus 0.
CCC(=O)N(C)C[C@H]1Oc2cc(C#CCC(C)C)ccc2S(=O)(=O)N([C@@H](C)CO)C[C@H]1C was read as Vaccinia inh -23 and Vaccinia inh Venus -26.
For CCCNC(=O)Nc1ccc2c(c1)OC[C@@H](C)NC[C@@H](C)[C@@H](OC)CN(C)C2=O the results were Vaccinia inh -6 and Vaccinia inh Venus -3.
`Cc1ccc(S(=O)(=O)Nc2ccc3c(c2)C(=O)N([C@H](C)CO)C[C@@H](C)[C@H](CN(C)Cc2ccc(C(F)(F)F)cc2)OCCCC[C@@H](C)O3)cc1` gave Vaccinia inh inconclusive.
Screening C[C@@H]1CN([C@@H](C)CO)C(=O)c2cccc(NS(=O)(=O)c3ccc(Cl)cc3)c2O[C@H]1CN(C)Cc1ccc(-c2ccccc2)cc1 returned Vaccinia inh -5 and Vaccinia inh Venus -8.
`CNC[C@@H]1Oc2ccc(NC(=O)Nc3ccc(F)cc3)cc2CC(=O)N([C@H](C)CO)C[C@H]1C` gave Vaccinia inh -2 and Vaccinia inh Venus -10.
Screening C[C@H](C(=O)N(C)C[C@@H]1OCc2ccccc2-c2c(n(C)c3ccccc23)C(=O)N([C@@H](C)CO)C[C@H]1C)c1ccccc1 returned Vaccinia inh inconclusive.
C[C@@H](NC(=O)C[C@@H]1C[C@H]2c3cc(NC(=O)c4cccnc4)ccc3O[C@H]2[C@@H](CO)O1)c1ccccc1 was read as Vaccinia inh 1 and Vaccinia inh Venus 2.
COc1ccc(S(=O)(=O)N(C)C[C@@H]2Oc3ncc(C#CCN(C)C)cc3C(=O)N([C@H](C)CO)C[C@@H]2C)cc1 was read as Vaccinia inh 5 and Vaccinia inh Venus 5.
Screening O=C([C@@H]1[C@@H](CO)[C@@H]2Cn3c(cccc3=O)[C@H]1N2Cc1cccc(Cl)c1)N1CCOCC1 returned Vaccinia inh -1 and Vaccinia inh Venus 4.
Cc1ccc(S(=O)(=O)Nc2ccc3c(c2)C(=O)N([C@@H](C)CO)C[C@H](C)[C@@H](CN(C)S(=O)(=O)c2cn(C)cn2)O3)cc1 was read as Vaccinia inh 11 and Vaccinia inh Venus 15.
For CC(C)c1cn(CC[C@H]2CC[C@H](NC(=O)C3CCCCC3)[C@@H](CO)O2)nn1 the results were Vaccinia inh -15 and Vaccinia inh Venus -10.
Screening COc1ccc(NC(=O)N[C@H]2CC[C@H](CCn3cc(-c4ccccn4)nn3)O[C@@H]2CO)cc1 returned Vaccinia inh -2 and Vaccinia inh Venus 3.
C[C@@H]1CN([C@H](C)CO)C(=O)c2cc(NC(=O)c3ccncc3)ccc2O[C@@H]1CN(C)Cc1ccncc1 was read as Vaccinia inh -10 and Vaccinia inh Venus -4.

Arranged by molar mass (ascending): some entries from above
OC[C@@H]1[C@H](c2ccc(C#CC3CC3)cc2)[C@H]2CN(CCC(F)(F)F)CCCCN12 was read as Vaccinia inh inconclusive.
For CCCNC(=O)Nc1ccc2c(c1)OC[C@@H](C)NC[C@@H](C)[C@@H](OC)CN(C)C2=O the results were Vaccinia inh -6 and Vaccinia inh Venus -3.
Screening COc1ccc(NC(=O)N[C@H]2CC[C@H](CCn3cc(-c4ccccn4)nn3)O[C@@H]2CO)cc1 returned Vaccinia inh -2 and Vaccinia inh Venus 3.
CCC(=O)N(C)C[C@H]1Oc2cc(C#CCC(C)C)ccc2S(=O)(=O)N([C@@H](C)CO)C[C@H]1C was read as Vaccinia inh -23 and Vaccinia inh Venus -26.
C[C@@H](NC(=O)C[C@@H]1C[C@H]2c3cc(NC(=O)c4cccnc4)ccc3O[C@H]2[C@@H](CO)O1)c1ccccc1 was read as Vaccinia inh 1 and Vaccinia inh Venus 2.
Cc1ccc(S(=O)(=O)Nc2ccc3c(c2)C(=O)N([C@@H](C)CO)C[C@H](C)[C@@H](CN(C)S(=O)(=O)c2cn(C)cn2)O3)cc1 was read as Vaccinia inh 11 and Vaccinia inh Venus 15.

Going on with the list.
Screening O=C(O)C1=C[C@H](C2CC2)C[C@H](OCc2ccc(CO)cc2)O1 returned Vaccinia inh 12 and Vaccinia inh Venus 8.
For O=C(C[C@H]1C[C@@H]2c3cc(NC(=O)NC4CCCC4)ccc3O[C@@H]2[C@H](CO)O1)NCc1ccc2c(c1)OCO2 the results were Vaccinia inh 11 and Vaccinia inh Venus 9.
`COc1ccc(S(=O)(=O)Nc2cccc3c2O[C@@H](CN(C)C(=O)NC(C)C)[C@H](C)CN([C@@H](C)CO)C3=O)cc1` gave Vaccinia inh 12 and Vaccinia inh Venus 6.
`CCCC(=O)Nc1ccc2c(c1)C(=O)N(C)[C@@H]1CC[C@@H](CC(=O)N3CCCCC3)O[C@@H]1CO2` gave Vaccinia inh 25 and Vaccinia inh Venus 15.
Screening COC(=O)[C@@H]1[C@@H](CO)[C@@H]2Cn3c(ccc(-c4cccc(OC)c4)c3=O)[C@H]1N2CC1CC1 returned Vaccinia inh 16 and Vaccinia inh Venus 7.
